Bst PK mod = pyruvate kinase (B. stearothermophilus) modulation. partly purified Bacillus stearothermophilus pyruvate kinase, luminescence ATP production; ribose 5-phosphate activator present at AC10. Potency, µM. 1.2% of 51,000 active; in the data active means potency below about 11 µM; inconclusive means mostly about 12 µM to 25 µM; inactive means weaker than that;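 the screen sought inhibitors and activators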;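 further: potency means the concentration at half of the fitted maximal effect; scaled between full activation by ribose 5 phosphate and full inhibition by luteolin; about four in five hits inhibit and the cells do not say which; series up to 57 µM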
YjeE inh = inhibitors of E. coli YjeE (TsaE). 0.05% of 71,000 active. Potency, µM. purified YjeE, fluorescence polarisation of a bound ADP probe. AID 605. P0AF67; active = well fitted falling curve; inconclusive = weaker or top-dose-only fall, or a rising curve; inactive = flat or poorly fitted curve;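 further: top concentration of the series not given in the record; excess ADP was the control for the full effect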
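Fluorescence polarization of a BODIPY Texas Red–ADP probe (2 uM) bound to purified YjeE (10 uM) was read after 15 min room-temperature incubation with compounds. Loss of polarization marks inhibitors; ADP serves as titrated control.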
An asterisk follows results filed as active; i = inactive; ? = inconclusive; / = no result given. Not all compounds are listed; count on the stated rates, not on these rows.

Bst PK mod | YjeE inh | structure
>57 | i | O=C(NC1CCCCC1)C(c1ccco1)N(C(=O)c1csnn1)C1CCCC1 (centres undefined)
/ | i | c1ccc2c(c1)CCCN2c1nc2ccccc2n2cnnc12
>57 | i | CCn1cc(C(=O)NCc2ccc3c(c2)OCO3)c(=O)c2ccc(C)nc21
>57 | i | O=C(NC1CCCCC1)N1CCN(CCc2ccccc2)CC1
i | i | N#CCCN1CCN(C(=S)c2ccc(-c3ccc(Cl)c(Cl)c3)o2)CC1
0.3* | i | Cn1c(/N=C/c2c[nH]c3ccccc23)nc2ccccc21
>57 | i | COc1ccc(C2C(C#N)=C(N)Oc3cc4c(cc32)OCO4)cc1 (centres undefined)
>57 | i | Cn1c(=O)c(C(=O)Nc2cccnc2)c(O)c2ccccc21
/ | i | Cc1[nH]c2c(C)cccc2c(=O)c1Br
/ | i | CN1CCN(CC(=O)N2c3ccccc3Sc3cc4ccccc4cc32)CC1
/ | i | O=S(=O)(c1ccccc1)N1CCC2(CCCN(c3ccncc3)C2)CC1
>57 | i | Cc1ccc(Cn2c(CN3CCN(C(=O)c4ccco4)CC3)nc3c2c(=O)n(C)c(=O)n3C)cc1
>57 | i | CCOC(=O)c1cccc(NC(=O)CSc2nnnn2CC)c1
>57 | i | COc1ccc(CCNC(=O)CCn2c(SCC#N)nc3ccccc3c2=O)cc1OC
>57 | i | CC(Cc1cccs1)NC(=O)Nc1ccccc1 (centres undefined)
/ | i | CCCCCn1c(-c2ccco2)nc2nc3ccccc3nc21
/ | i | COc1ccc2nc3c(c(-c4ccccc4)c2c1)CCC3
/ | i | O=C(Cn1nc(Cc2cccnc2)c2ccccc2c1=O)N1CCN(c2ccccn2)CC1
/ | i | O=C(N[C@@H](CO)[C@@H](O)c1ccc([N+](=O)[O-])cc1)C(Cl)Cl
>57 | i | CC(=O)Nc1cccc(N(C)S(C)(=O)=O)c1
/ | i | O=S(=O)(NCc1cccnc1)c1cccc2cccnc12
>57 | i | Cc1ccc(C(=O)CSc2nnc(-c3cccnc3)n2N)cc1
>57 | i | COC(=O)c1ccccc1S(=O)(=O)N(Cc1cc2cc3c(cc2[nH]c1=O)OCO3)C1CCCCC1
/ | i | Cc1noc(C(=O)Nc2c(C)nn(Cc3ccccc3)c2C)c1Cl
/ | i | CN(C)c1ccc(-c2ccc3ncnc(-n4ccnc4)c3c2)cc1
/ | i | CCOC(=O)c1c(C)c(C(=O)O)n(C)c1C
>57 | i | COc1ccc(CNC(=O)C2CC(c3ccc(OC)cc3)=NO2)cc1 (centres undefined)
>57 | i | CN1CCN(S(=O)(=O)c2ccc(N(C)Cc3cccs3)nc2)CC1
/ | i | CC(c1ccc(Br)cc1)N1CC23C=CC(O2)C(C(=O)O)C3C1=O (centres undefined)
>57 | i | C=CCNC(=O)c1ccccc1NS(=O)(=O)c1ccc(SC)cc1
>57 | i | Nc1ccc(-n2nnnc2-c2ccco2)cc1
>57 | i | Cc1ccc2cc(C(c3nnnn3C3CCCC3)N3CCOCC3)c(=O)[nH]c2c1C (centres undefined)
/ | i | COc1ccccc1N1CCN(CCCC(=O)c2ccc(F)cc2)CC1
>57 | i | Cc1[nH]c2ccccc2c1CC(=O)O
>57 | i | CCN(CC)S(=O)(=O)c1cccc(C(=O)NCCCN2CCOCC2)c1
>57 | i | CCOC(=O)c1snc2c(=O)[nH]cnc12
>57 | i | CC(NC(=O)c1ccc(CS(=O)(=O)Cc2ccccc2F)o1)c1ccc2c(c1)OCCO2 (centres undefined)
/ | i | CC(=O)N1CCN(c2ccc(OC[C@@H]3CO[C@@](Cn4ccnc4)(c4ccc(Cl)cc4Cl)O3)cc2)CC1
>26 | / | CCC(NC(=O)Nc1cc(OC)c(OC)c(OC)c1)(C(F)(F)F)C(F)(F)F
/ | i | COC(=O)c1ccc(CSc2ccc3nnc(-c4cccc(F)c4)n3n2)o1
/ | i | Cc1c(C(=O)O)cccc1[N+](=O)[O-]
>57 | i | COCCCNC(=O)c1ccc(CS(=O)(=O)Cc2cccc(C)c2)o1
>26 | / | N#CC1=C(N)NC(SCc2ccc(Cl)cc2)=C(C#N)C12CCCCC2
/ | i | CC(=O)[C@H]1CC[C@@H]2[C@]1(C)CC=C1[C@]23C=C[C@]2(C[C@H](O)CC[C@@]12C)[C@H](C(=O)O)[C@@H]3C(=O)O
>57 | i | CC(=O)NC1CC2CCCC(C1)N2CC(=O)N1CCCc2ccccc21 (centres undefined)
>57 | i | Cc1ccc(S(=O)(=O)N2CCCC2)cc1S(=O)(=O)N1CCCC1
/ | i | CCCCCCCCCCCCCCCC(=O)C(F)(F)F
>57 | i | CCn1c(C)nc2cc(S(=O)(=O)N3CCCCC3)ccc21
>26 | / | Cc1nc(N2CCOCC2)c(C#N)c2c1COC(C)(C)C2
i | i | Brc1cccc(-c2nnc(-c3ccccc3)o2)c1
/ | i | C[C@H](N)C(=O)O
>57 | i | O=C(NCc1ccc2c(c1)OCO2)c1ccc(NS(=O)(=O)c2ccc3c(c2)OCCO3)cc1
>57 | i | O=C(CCSCc1ccccc1F)N1CCN(c2ccccn2)CC1
/ | i | NC(N)=NC[C@@H]1CCCCCCN1
>57 | i | COc1cc(OC)cc(C(=O)Nc2ccc(S(=O)(=O)N(C)C)cc2)c1
>57 | i | Cc1csc(NC(=O)c2nc3nccc(C)n3n2)n1

More structures
Bst PK mod | YjeE inh | structure
>57 | i | CC1CCCN(C(=O)COC(=O)c2n[nH]c3ccccc23)C1 (centres undefined)
/ | i | CC1CCCN(c2nc3ccsc3c(=O)s2)C1 (centres undefined)
>57 | i | CCOC(=O)c1ccccc1NC(=O)c1ccccc1SC
>57 | i | Cn1c(=O)c2cc(S(=O)(=O)N3CCN(c4cccc(C(F)(F)F)c4)CC3)ccc2n(C)c1=O
>57 | i | COc1ccccc1NC(=O)N(c1c(N)n(Cc2ccccc2)c(=O)[nH]c1=O)C1CCCC1
>57 | i | COc1ncnc(OC)c1NC(=O)c1ccc(F)cc1
>57 | i | COc1ccc(OCCC(=O)NC2=NCCS2)cc1
>57 | i | CN1CCN(c2nc(N3CCN(CCO)CC3)nc3ccccc23)CC1
/ | i | COc1ccc(-n2c(Cn3c(=O)sc4ccccc43)nnc2SCC(=O)N2CCOCC2)cc1
>57 | i | CCn1c(=O)c(C(=O)Nn2c(C)nc3ccccc3c2=O)c(O)c2ccccc21
/ | i | COC(=O)c1ccc(N=c2sc(C(=O)OC)cc(=O)n2C)cc1
/ | i | O=S(=O)(NCCOc1cccc2cccnc12)c1ccc(F)cc1
>57 | i | COc1cc(C2CC(=O)c3cnc(N4CCN(Cc5ccccc5)CC4)nc3C2)cc(OC)c1OC (centres undefined)
>57 | i | Cc1ccc2[nH]c(=O)c(CN(CC3CCCO3)S(=O)(=O)c3c(C)ccc4nsnc34)cc2c1 (centres undefined)
>57 | i | Cc1ccccc1OCC1CN(CN2CCOCC2)C(=O)O1 (centres undefined)
>57 | i | O=C(CSc1nnc(-c2ccc(NS(=O)(=O)c3ccccc3)cc2)o1)NCC1CCCO1 (centres undefined)
>57 | i | O=C(COC(=O)c1cc(S(=O)(=O)N2CCOCC2)cs1)c1ccccc1
>57 | i | COC(=O)c1cn(C)c2ccc(S(=O)(=O)N3CCCCC3)cc2c1=O
/ | i | Cc1cnc(CNc2ccnc(-c3ccc(N(C)C)cc3)n2)cn1
>57 | i | COc1ccc2cc(CN(CCCN3CCOCC3)Cc3nnnn3C3CCCCC3)c(=O)[nH]c2c1
>26 | / | O=C(CCC1CCCC1)N1CCC(N2CCN(c3ccccc3)CC2)CC1
>57 | i | Cc1nn(Cc2ccccc2)c(C)c1NC(=O)CCC(=O)O
? | i | CCCn1c(C)cc(C(=O)COC(=O)c2ccc(Cl)c(S(=O)(=O)N3CCCC3)c2)c1C
>57 | i | CCOC(=O)C1CCN(Cc2cn[nH]c2-c2ccccc2)CC1
>57 | i | O=C(O)CSc1nnc(-c2ccncc2)n1C1CCCCC1
>57 | i | CCOCCCN1CC(C(=O)NCCc2ccccc2)CC1=O (centres undefined)
>57 | i | O=C1CC(Sc2nnc(-c3ccccc3)o2)C(=O)N1c1ccccc1 (centres undefined)
>57 | i | CCc1nnc(NC(=O)CN2C(=O)c3ccccc3S2(=O)=O)s1
>57 | i | CCOC(=O)C1CCCN(C(=O)C2CCN(S(=O)(=O)c3cnc[nH]3)CC2)C1 (centres undefined)
/ | i | COc1ccc2nc(C)c3c(c2c1)OC(C)C3 (centres undefined)
/ | i | COC(=O)Cn1c(C)nc(=O)c(-c2ccccc2)c1C
/ | i | Cc1cc(C)c(C(=O)Nc2ccc(S(=O)(=O)Nc3onc(C)c3C)cc2)c(C)c1
>57 | i | CCOc1ccc(C2C(C(=O)OC)=C(C)N=C3SCCC(=O)N32)cc1OCC (centres undefined)
/ | i | c1cc(NNc2cccc(-c3nn[nH]n3)c2)cc(-c2nn[nH]n2)c1
/ | i | CCCOC(=O)Nc1ccc(S(=O)(=O)Nn2cnnc2)cc1
>57 | i | COC(=O)c1ccsc1NC(=O)CSc1nnnn1-c1ccccc1SC
/ | i | Cc1ccccc1-c1nc(NCc2cccnc2)c2ccccc2n1
/ | i | O=C1c2ccccc2S(=O)(=O)N1CC1CC(c2ccccc2)=NO1 (centres undefined)
>57 | i | COc1ccc2oc(=O)c(C(=O)N3CCN(c4ccccc4)CC3)cc2c1
>57 | i | O=C(O)c1cccc(COCC(F)(F)C(F)F)c1
>57 | i | N#CCCn1c(SCC(=O)N2CCN(S(=O)(=O)c3ccccc3)CC2)nc2ccccc21
>57 | i | O=C(NCc1ccc2c(c1)OCO2)C1CCN(Cc2cnn(-c3ccccc3)c2-n2cccc2)CC1
>57 | i | O=C(CSc1nnnn1C1CCCC1)N1CCN(C(=O)c2ccco2)CC1
>57 | i | C=CCn1c(=O)/c(=C/c2cc(OC)c(OC)c(OC)c2)s/c1=C(/C#N)c1nc2ccccc2n1C
>57 | i | COc1ccc(-n2c(SCC#N)nnc2-c2ccc(NS(=O)(=O)c3ccc(C)cc3)cc2)cc1
/ | i | CCOc1ccc2nc(SCC(=O)c3cccs3)sc2c1
>57 | i | Nc1cc(S(=O)(=O)C(F)(F)F)ccc1C(=O)O
/ | i | O=C(c1cccc(F)c1)N1CCC2(CC1)CN(c1ccccn1)C2
>57 | i | CCc1nnc2sc(-c3ccc(NC(=O)CSc4ccc(Cl)cc4)cc3)nn12
/ | i | CC1CCCC(C)N1CCCNC(=O)Cn1cc2c(n1)CCCC2 (centres undefined)
/ | i | CC(=O)NCCNc1nc(-c2c(C)noc2C)nc2ccccc12
>57 | i | COc1ccc2[nH]cc(C(=O)N3CCCCC3)c(=O)c2c1
>57 | i | CSc1n[nH]c(NCc2ccccc2)n1
/ | i | C[C@@]1(C(NC(=O)c2cccs2)c2ccc(-c3ccccc3)cc2)C[C@H]1C1CCCCC1 (some centres undefined)
>57 | i | COc1ccc(NC(=O)CN(C)S(=O)(=O)c2ccc3c(c2)OCCO3)c2ncccc12
>57 | i | Cc1nc2ccccn2c1C(=O)NCCCN1CCOCC1

The results go on.
Bst PK mod | YjeE inh | structure
/ | i | CCCc1nc(N)c(C#N)c(-c2cccnc2)c1CC
>57 | i | O=C(Nc1ccc(S(=O)(=O)N2CCCCC2)cc1)c1ccncc1
>57 | i | C/C=C/CSc1nc2c(c(=O)[nH]c(=O)n2C)n1C(C)C
/ | i | COC(=O)C1=CO[C@@H](C)[C@H]2CN3CCc4c([nH]c5ccccc45)[C@@H]3C[C@H]12
>57 | i | Cn1c(=O)c(NC(=O)c2ccccc2)c2n(c1=S)CCCCC2
/ | i | CSc1ccc(C(=O)c2[nH]c(=O)[nH]c2C)cc1
>57 | i | CC1(C)CC(=O)C2=C(C1)OC(=O)C2(NC(=O)c1cccs1)C(F)(F)F (centres undefined)
>57 | i | Cc1ccc2cccc(S(=O)(=O)Nc3ccc4c(c3)OCO4)c2n1

Of the compounds above, these have a nitro group on carbon.
Bst PK mod | YjeE inh | structure
/ | i | O=C(N[C@@H](CO)[C@@H](O)c1ccc([N+](=O)[O-])cc1)C(Cl)Cl
/ | i | Cc1c(C(=O)O)cccc1[N+](=O)[O-]

(further entries)
Bst PK mod | YjeE inh | structure
>57 | i | CN(CC(=O)Nc1ccc(C#N)cc1)Cc1ccc(Cl)cc1
>57 | i | Cc1cc(NC(=O)COC(=O)c2cccc(S(=O)(=O)N3CCOCC3)c2)no1
>57 | i | CCc1ccccc1NC(=O)c1nnn(CC(=O)Nc2cccc(C)c2C)c1N
/ | i | CN(C)Cc1ccccc1-c1nc(N2CCOCC2)c2ccccc2n1
>57 | i | Cn1c(=O)n(CC(=O)NCc2cccnc2)c2ccccc21
>57 | i | COc1ccc(C(=O)NC(=O)N2CCCCC2)cc1
>57 | i | Cc1cc(C)c2cc(CN(CCO)Cc3nnnn3Cc3ccc(F)cc3)c(=O)[nH]c2c1
>57 | i | O=C(O)c1cccc(NS(=O)(=O)c2ccc3nnn(O)c3c2)c1
>57 | i | Cn1c(=O)c2c(nc(SCC(=O)NCc3ccco3)n2C)n(C)c1=O
/ | i | CC(C)(C)c1ccc(-c2nc(C#N)c(NCc3ccncc3)o2)cc1
>57 | i | Cc1ccccc1NC(=O)c1ccccc1O
>57 | i | CCCCc1ccc(NC(=O)N[C@H](C(=O)O)C(C)C)cc1

Compound profiles, from the list above. Order of values: Bst PK mod, YjeE inh
Cc1ccccc1NC(=O)c1ccccc1O as listed: >57, i
COc1ccc(OCCC(=O)NC2=NCCS2)cc1 as listed: >57, i
C[C@@]1(C(NC(=O)c2cccs2)c2ccc(-c3ccccc3)cc2)C[C@H]1C1CCCCC1 (some centres undefined) as listed: /, i

Screens from PubChem BioAssay.
